Source: PubChem (National Center for Advancing Translational Sciences (NCATS))
miR-21 FLuc = qHTS Assay for Modulators of miRNAs and/orActivators of miR-21; HeLa miR-21 FLuc reporter, luciferase, 48 h; Potency, µM (series often up to 38.3 µM), without a hit: at the top dose reporter change, positive = more light; 340,000 tested, under 10 active; AID 2288, 2010; active = well fitted rising curve with a large enough effect; inconclusive = small, poorly fitted or top-dose-only effect; inactive = no such curve, though single readings can be large or run the other way;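 also: % of control where 0% means no effect; miR-21 action dims this reporter so a rising signal means less miR-21 action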
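HeLa cells stably expressing CMV-driven firefly luciferase with a downstream miR-21 binding sequence, endogenously expressing miR-21, were treated with titrations (up to about 40uM final) for 48 hours at 37 degree Celsius. Luciferase luminescence was read after lysis.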
Rango release inh = qHTS Assay for Inhibitors of RanGTP induced Rango (Ran-regulated importin-beta cargo) - Importin beta complex dissociation. 0.071% of 340,000 active. Biochemical FRET Rango-importin beta, RanGTP-induced dissociation. Potency, µM (doses to about 46.1 µM), without a hit: at the highest dose activity change, negative = inhibition. Snurportin-1 (Homo sapiens) + GTP-binding nuclear protein Ran (Homo sapiens) + Importin …; active means falling FRET ratio curve, often poorly fitted, with flat reads before Ran was added; inconclusive means other falling curves, or compound fluorescence or quenching; inactive means flat or rising ratio curve;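 also: potency is read from the fitted curve at half-maximal effect; % of control where 0% means no effect; nearly all actives have a fitted effect of over 45% in size; -100% = wells without RanGTP and RCC1; the record marks most hits as doubtful in a second field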
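Rango/importin beta premix (0.1/0.25 uM final), PBS + 1 mM DTT + 0.02% Tween-20 + 0.1% BSA; cpd 5 min RT; FRET pre-read; + RanGTP-RCC1 (0.6 uM Ran, 2 mM GTP, 0.2 uM RCC1); 45 min RT; FRET post-read, ex 430, em 486/530 nm.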
GLA inh pH 4.5 = qHTS Assay for Inhibitors of Human alpha-Galactosidase at pH 4.5; Alpha-galactosidase A (Homo sapiens), P06280; purified enzyme, 4-MU-alpha-Gal fluorescence, pH 4.5; activity change, negative = inhibition, % at 105 µM; 230,000 tested, under 10 active; AID 1467, 2008; inconclusive = small, poorly fitted or top-dose-only inhibition, or a rising curve; inactive = flat fitted curve, though single readings scatter; no compound was filed as active;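 also: 0% = full activity with enzyme and -100% = basal without enzyme; dose as in the result columns while the protocol names 77 µM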
Target sequence (P06280 whole entry, looked up): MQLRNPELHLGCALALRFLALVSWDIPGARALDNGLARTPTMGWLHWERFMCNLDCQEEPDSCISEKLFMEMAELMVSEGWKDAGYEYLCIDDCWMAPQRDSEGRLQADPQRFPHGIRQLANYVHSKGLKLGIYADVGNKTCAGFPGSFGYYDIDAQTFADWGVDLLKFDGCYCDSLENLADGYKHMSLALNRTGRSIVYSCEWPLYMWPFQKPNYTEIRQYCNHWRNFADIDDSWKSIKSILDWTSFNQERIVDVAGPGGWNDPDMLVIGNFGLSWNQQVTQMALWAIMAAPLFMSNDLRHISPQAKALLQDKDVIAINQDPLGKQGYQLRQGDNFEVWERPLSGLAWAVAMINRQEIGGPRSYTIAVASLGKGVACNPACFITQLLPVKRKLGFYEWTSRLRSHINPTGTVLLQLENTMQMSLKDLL
Rango-impB inh = qHTS Assay for Inhibitors of Rango (Ran-regulated importin-beta cargo) - Importin beta complex formation | Rango CFP/YFP FRET sensor + importin beta, 45 min | Potency, µM (series often up to 92.2 µM), for the others: at the highest dose inhibition of complex formation | AID 540263, 2011 | Importin subunit beta-1 (Homo sapiens), Q14974 | 0.031% of 340,000 active; active = rising FRET ratio curve, often small or poorly fitted; inconclusive = mostly compound fluorescence or quenching in the first reads; inactive = flat curves in all reads;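 also: potency is read from the fitted curve at half-maximal effect; 0% = DMSO wells and 100% = buffer wells lacking importin beta; nearly all actives have a fitted effect of over 15% in size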
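FRET biosensor Rango (snurportin 1 IBB between N-terminal EYFP and C-terminal Cerulean), 50 nM in PBS/1 mM DTT/0.02% Tween-20/0.1% BSA, preincubated 5 min RT with compound; 0.125 microM importin beta added, 45 min RT, CFP/YFP FRET ratio read.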
* = called active by the depositor; ? = inconclusive; nt = no result given; & = joins results of further samples. A portion of the library; count on the stated rates, not on these rows.

Sample of the layout, six compounds:
SMILES	miR-21 FLuc	Rango release inh	GLA inh pH 4.5	Rango-impB inh
Cn1c(CNC(=O)c2ccc3c(c2)OCO3)nnc1SCC(=O)Nc1ccccc1Cl	6%	-16%	nt	1.9%
COc1cccc(CNC(=S)Nc2cc(C)ccc2C)c1	-5%	7%	6	0.3%
CC(=O)Nc1cccc(C(=O)N2CCN(Cc3ccccc3)CC2)c1	-4%	-14%	-5	-1.1%
CC(=O)c1ccc(S(=O)(=O)NCCC(=O)OC(C)C(=O)Nc2ccc(F)cc2)cc1 (stereo not given)	nt	-12%	nt	0.6%
O=C(Cc1ccccc1)NC(NNc1ccccc1)(C(F)(F)F)C(F)(F)F	-5%	24%	-23	5.4%
NC(=O)COC(=O)CC1CC2CCC1C2 (stereo not given)	-1%	1%	3	-1.7%

Results (from the top)
SMILES	miR-21 FLuc	Rango release inh	GLA inh pH 4.5	Rango-impB inh
Cn1c(CNC(=O)c2ccc3c(c2)OCO3)nnc1SCC(=O)Nc1ccccc1Cl	6%	-16%	nt	1.9%
COc1cccc(CNC(=S)Nc2cc(C)ccc2C)c1	-5%	7%	6	0.3%
CC(=O)Nc1cccc(C(=O)N2CCN(Cc3ccccc3)CC2)c1	-4%	-14%	-5	-1.1%
CC(=O)c1ccc(S(=O)(=O)NCCC(=O)OC(C)C(=O)Nc2ccc(F)cc2)cc1 (stereo not given)	nt	-12%	nt	0.6%
O=C(Cc1ccccc1)NC(NNc1ccccc1)(C(F)(F)F)C(F)(F)F	-5%	24%	-23	5.4%
NC(=O)COC(=O)CC1CC2CCC1C2 (stereo not given)	-1%	1%	3	-1.7%
O=C(c1cccc([N+](=O)[O-])c1)N1CCN(c2n[nH]c(=O)[nH]c2=O)CC1	1%	10%	-10	-0.1%
CC(C)(C)c1nnc(NS(=O)(=O)c2ccc([N+](=O)[O-])cc2)s1	0%	23%	nt	4.5%
Cc1cccc(C(=O)Nc2ccc3c(c2)nc(C)n3C)c1	-10%	4%	nt	-0.1%
O=C(NCc1ccco1)c1c(O)c2cccc3c2n(c1=O)CCC3	0%	0%	-3	0.2%
CCCCc1cc(O)c(CCCC)c(O)c1	-40%	0%	4	6.6%
O=C(CSc1ccc(-c2cccnc2)nn1)N1CCCC1	-2%	-2%	0	-1.5%
CCc1cc[n+](C2=C([O-])c3ccccc3C(=O)/C2=N\S(=O)(=O)c2cccs2)cc1	?	-2%	-3	0.6%
C=CC[C@H](CC(=O)N(CCO)Cc1ccccc1)C(=O)NC[C@@H](OC(=O)[C@@H](CC=C)Cc1ccc(F)cc1)c1ccccc1	nt	-3%	nt	0.3%
Cc1ccc(S(=O)(=O)N(CC(=O)Nc2ccc(C(N)=O)cc2)C(=O)N2CCN(C)CC2)cc1	nt	-6%	nt	-2.8%
Cc1ccccc1-c1nc2ccccc2c(=O)n1/N=C/c1ccc([N+](=O)[O-])cc1	nt	5%	nt	0.5%
C/C(CC(=O)Nc1ccc(Cl)cc1)=N\NC(=O)C(=O)N1CCCCC1	-35%	0%	-10	3.0%
CCCNC(=O)c1csc(Nc2cccc3ccccc23)n1	-6%	-18%	nt	1.8%
Cc1ccc2cc3c(N)c(C(=O)Nc4c(C)[nH]c(=O)[nH]c4=O)sc3nc2c1	2%	-5%	-9	?
COc1ccccc1NC(=O)c1nnn(CC(=O)Nc2ccccc2)c1N	-2%	4%	0	-3.9%
CC12CCC(=O)N1C(C(=O)N1CCN(S(=O)(=O)c3ccc(F)c(F)c3)CC1)CS2 (stereo not given)	nt	-3%	nt	-2.2%
COc1ccc(N=Cc2c(O)cc(C)oc2=O)cc1	1%	1%	6	1.0%
Cc1cc(NC(=O)CN(C)CCOc2ccccc2)ccc1Br	0%	-13%	-3	-2.4%
CCOc1ccc(S(=O)(=O)N2CCCCC2)cc1NC(=O)CC1OC(=O)c2ccccc21 (stereo not given)	nt	-20%	nt	-0.4%
CCN(CC)c1ccc(NC(=O)/C=C/c2cc(Br)ccc2OC)cc1	3%	13%	-7	?
C#CCOC(=O)CCCC(=O)Nc1ccccc1OC	-4%	6%	3	-0.5%
CCOc1ccc(C(C(=O)NC2CCCCC2)N(C(=O)c2ccco2)c2ccc(-n3cnnn3)c(C)c2)cc1 (stereo not given)	-5%	0%	3	-1.3%
Cc1ccc(C(=O)CC(C(=O)O)P(=O)(c2ccccc2)c2ccccc2)cc1 (stereo not given)	-3%	-15%	8	-1.4%
O=C(Nc1ccc2c(c1)OCO2)N1CCN(c2ncccn2)CC1	-36%	1%	-7	-0.8%
Cc1ccc(-c2nc3ncccc3o2)cc1NC(=S)NC(=O)c1ccco1	-12%	13%	-18	-3.4%
Cc1cc(C(=O)Nc2ccccc2N2CCOCC2)c(C)o1	3%	18%	2	5.5%
Cc1ccc(NC(=O)CCOc2ccccc2C)cc1C	-32%	-5%	nt	-1.6%
N#CC1=C(N)N(c2ncn[nH]2)C2=C(C(=O)CCC2)C1c1ccccc1 (stereo not given)	0%	6%	-23	-1.9%
Cc1ccc2c(c1)/C(=C/c1ccccc1)C(=O)N2	16%	?	nt	-0.3%
CC(C)CN(C(=O)CSc1n[nH]c(-c2cccs2)n1)C1CCS(=O)(=O)C1 (stereo not given)	nt	-10%	nt	-2.8%
O=C(NC1CCCCC1)C1CC(=O)N(c2cccc([N+](=O)[O-])c2)C1 (stereo not given)	-1%	7%	-2	-3.0%
O=Cc1ccccc1OCCN1CCCC1=O	1%	1%	nt	1.4%
COc1ccc(CC(=O)NCC(=O)N/N=C/c2sccc2C)cc1	0%	-8%	nt	2.9%
Nc1ncc(Br)cc1S(=O)(=O)NCCC(=O)NCc1ccc(F)cc1	7%	-1%	nt	0.5%
Nc1[nH]n2c(=O)c3c(nc2c1N=Nc1ccc(Cl)cc1)CCCC3	-2%	-9%	-4	-3.8%
OCc1nnc2c3ccccc3c(-c3ccccc3)nn12	-12%	2%	8	1.5%
O=C(CN1CCCCC1)N/N=C/c1ccccc1Br	-7%	-3%	nt	0.1%
O=C(Nc1cccc(C(=O)O)c1)/C(=C\c1ccc2c(c1)OCO2)NC(=O)c1ccc(Br)o1	-11%	-10%	-5	-5.8%
O=C(NCC(c1ccco1)N1CCCC1)c1cc2ccccc2s1 (stereo not given)	nt	2%	nt	-0.1%
CC(=O)Nc1ccc(C(=O)/C=C/c2ccc[nH]2)cc1	-62%	?	0	?
COc1ccc(NC(=S)NCCc2ccc(S(N)(=O)=O)cc2)c(OC)c1	0%	4%	-11	0.6%
CN(C)c1ccc(C(=O)OCC(=O)NCC2CCCO2)cc1 (stereo not given)	-11%	-3%	6	2.3%
COc1ccc(C(CCN2CCCC(C)C2)c2c(OC)cc(OC)c3c(-c4ccccc4)cc(=O)oc23)cc1 (stereo not given)	23%	-12%	-4	-0.1%
COC(=O)c1cn(NC(=O)c2cc([N+](=O)[O-])ccc2F)c(=O)c2ccccc12	30%	-11%	-11	-0.8%
CCS(=O)(=O)c1c([N+](=O)[O-])ncn1C	15%	8%	-6	?
Remaining list, next part:
SMILES	miR-21 FLuc	Rango release inh	GLA inh pH 4.5	Rango-impB inh
O=C(Cn1cncn1)NCc1ccc(Cl)cc1	-1%	2%	-1	-0.5%
C=CCNc1ncnc2c1cnn2-c1cccc(C)c1	-48%	13%	-4	-2.3%
Cc1ccc(C)c(N(CC(=O)NC2CCCC2)C(=O)CNC(=O)c2cccs2)c1	0%	0%	nt	-3.1%
CCOC(=O)C(NC(=O)c1ccccc1Cl)(Nc1ccc(C)c(C)c1)C(F)(F)F (stereo not given)	-11%	0%	-16	0.2%
O=C(O)c1cc(-c2ccccc2Cl)n(-c2ccc(F)cc2)n1	-15%	8%	nt	-1.5%
Cc1cc(S(=O)(=O)N2CCN(C(=O)CCC(=O)N3CCOCC3)CC2)ccc1Br	1%	4%	8	6.8%
COCCCNC(=O)c1cc2c(-c3ccc(Cl)cc3)nn(C)c2s1	8%	-7%	-5	-3.3%
Cc1ccc(NC(=O)C2CCN(S(=O)(=O)c3ccc4c(c3)CC(C)N4C(=O)C3CCC3)CC2)nc1 (stereo not given)	28%	2%	nt	1.6%
CCOC(=O)C1CCCN(Cc2cc(Br)c(OC)cc2OC)C1 (stereo not given)	-3%	17%	-4	-1.2%
Cc1ccc(C(=O)N2CCN(c3ncccn3)CC2)cc1NC1=NC2CS(=O)(=O)CC2S1 (stereo not given)	2%	12%	nt	6.0%
COc1ccccc1NC(=O)NC1(C(=O)N2CCC(C)CC2)CCCCC1	1%	0%	nt	1.9%
CC1(c2ccccc2)O[C@@H]2C[C@H]3[C@@H]4CCC5=CC(=O)C=C[C@]5(C)[C@@]4(F)[C@@H](O)C[C@]3(C)[C@]2(C(=O)CO)O1 (stereo not given in full)	-4%	-5%	-2	0.2%
COc1cc(/C=N/NC(=O)C(=O)NCc2ccco2)cc(Br)c1O	0%	-11%	-7	-0.2%
CCOC(=O)CNC(=O)CSc1nnc(SCC(=O)NCC(=O)OCC)s1	0%	18%	3	1.9%
COc1ccc(-c2[nH]nc(-c3ccccc3)c2-c2nc3ccccc3[nH]2)cc1	6%	1%	3	-1.1%
N#Cc1c(-c2ccccc2)cc2nc3ccccc3n2c1N	-39%	?	?	?
CC(=NNC(=O)c1ccncc1)c1ccccc1Cl	nt	-13%	nt	-2.3%
Cc1ccc(C)c(OCCN2C(=O)NC3(CCc4ccccc4C3)C2=O)c1 (stereo not given)	-6%	7%	?	-0.3%
C=C1C(=O)O[C@@H]2C[C@@H](C)[C@@H]3C=CC(=O)[C@@]3(C)[C@@H](OC(C)=O)[C@H]12	?	-2%	10	1.9%
Cc1oc(-c2ccccc2Cl)nc1CS(=O)CC(=O)NCc1ccc(Cl)cc1 (stereo not given)	-2%&0%	30%	nt	2.5%
CCc1nnc(NC(=O)Cc2ccc(Br)cc2)s1	-4%	-8%	8	0.6%
Cc1ccc(C(=O)NCC(=O)NCC(=O)OCC(=O)c2ccc(F)cc2)cc1	-2%	-1%	4	0.7%
CCOC(=O)C(NC(=O)c1cccc(Cl)c1)(Nc1sc2c(c1C(N)=O)CCC2)C(F)(F)F (stereo not given)	-16%	-8%	10	?
COc1ccc(NC(=O)N(C)C[C@H]2Oc3ccc(NS(=O)(=O)c4cccs4)cc3C(=O)N([C@H](C)CO)C[C@@H]2C)cc1	nt	1%	nt	?
COc1ccccc1NC(=O)Nc1ccc2c(c1)nc(C)n2C	-29%	0%	-1	4.1%
CCN(CC)CCCNC(=O)c1cc(-c2ccc(O)cc2)on1	-8%	2%	-6	1.2%
COc1ccc([C@H]2[C@H](C(=O)C(C)(C)C)N3N=Cc4ccccc4C3[C@]23N=C(c2ccccc2)OC3=O)cc1 (stereo not given in full)	-12%	1%	-12	-1.2%
Cc1cccc(NC(=O)COC(=O)c2ccc3nc(C)c(C)nc3c2)c1	nt	1%	nt	0.6%
O=C(Nc1ncccc1O)c1cccc(S(=O)(=O)N2CCCC2)c1	nt	-5%	nt	-2.4%
CC(C)NC(=O)CCCc1ccccc1	-28%	-3%	2	2.0%
COc1cc(NC(=O)COC(=O)Cn2cnc3c2c(=O)n(C)c(=O)n3C)cc(OC)c1	nt	-1%	nt	?
Cc1cc(Br)ccc1NC(=O)CNC(=O)CNc1cccc([N+](=O)[O-])c1	nt	-6%	nt	0.5%

Limited to Rango release inh (two entries from above):
molecule	Rango release inh
Cc1cc(Br)ccc1NC(=O)CNC(=O)CNc1cccc([N+](=O)[O-])c1	-6%
CC(C)NC(=O)CCCc1ccccc1	-3%
